Source: PubChem BioAssay (National Center for Advancing Translational Sciences (NCATS))
EPAC2 ant val: validation of human EPAC2 antagonists | 1.7% of 16,000 active | EPAC2 Rap1B BODIPY-GDP exchange, fluorescence | Q8WZA2 | Potency, µM (titrated, usually from 112 µM), for the others: at the top dose activity, negative = inhibition, most hits filed as inhibitors; active = well fitted inhibition curve with a large enough effect; inconclusive = small, poorly fitted or top-dose-only effect; inactive = no such curve, though single readings can be large or run the other way;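 note: 100% = activation by cAMP agonist control; nearly all actives have a fitted effect of over 40% in size; the record reuses the description of the EPAC1 agonist screen; inactives centre near -10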
Target sequence (Q8WZA2 whole entry, looked up): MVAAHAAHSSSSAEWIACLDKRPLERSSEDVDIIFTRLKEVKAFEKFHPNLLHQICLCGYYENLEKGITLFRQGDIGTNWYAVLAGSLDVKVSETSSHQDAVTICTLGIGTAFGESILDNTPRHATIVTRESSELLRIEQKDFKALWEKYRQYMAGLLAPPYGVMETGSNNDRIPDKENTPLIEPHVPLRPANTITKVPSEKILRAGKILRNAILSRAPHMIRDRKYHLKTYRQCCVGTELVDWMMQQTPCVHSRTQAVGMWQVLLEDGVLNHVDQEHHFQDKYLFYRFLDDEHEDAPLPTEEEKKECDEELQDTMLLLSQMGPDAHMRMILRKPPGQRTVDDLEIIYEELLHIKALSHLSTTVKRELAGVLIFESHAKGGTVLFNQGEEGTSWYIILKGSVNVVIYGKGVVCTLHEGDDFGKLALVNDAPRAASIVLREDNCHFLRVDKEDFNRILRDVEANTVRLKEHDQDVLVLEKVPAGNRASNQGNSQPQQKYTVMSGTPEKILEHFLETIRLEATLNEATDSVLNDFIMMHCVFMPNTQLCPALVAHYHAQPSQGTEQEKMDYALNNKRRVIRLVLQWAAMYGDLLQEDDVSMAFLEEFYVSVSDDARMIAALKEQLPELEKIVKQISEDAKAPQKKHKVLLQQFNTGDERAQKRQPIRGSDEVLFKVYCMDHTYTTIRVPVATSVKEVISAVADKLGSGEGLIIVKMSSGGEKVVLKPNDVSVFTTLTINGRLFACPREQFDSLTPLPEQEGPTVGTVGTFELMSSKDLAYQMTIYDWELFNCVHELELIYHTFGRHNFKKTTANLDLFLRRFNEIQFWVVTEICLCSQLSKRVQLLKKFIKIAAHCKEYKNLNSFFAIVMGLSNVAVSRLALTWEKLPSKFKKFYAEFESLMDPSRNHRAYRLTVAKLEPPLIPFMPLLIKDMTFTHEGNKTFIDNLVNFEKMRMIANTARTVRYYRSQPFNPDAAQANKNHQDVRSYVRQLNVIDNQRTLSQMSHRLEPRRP
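Normalized against a 6.5 mM cAMP agonist control, compounds were tested on 100 nM EPAC2 exchanging Rap1B-bound BODIPY-GDP (250 nM) for 50 uM GDP. Fluorescence drop (ex 480, em 540 nm) was tracked at room temperature over 30 min at 5-min intervals.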
The depositor's hits bear a star; & = joins results of further samples; [ ] = remark or other dose. Potency is the fitted concentration of half-maximal effect. Some of the compounds tested, so the mix of outcomes need not match the whole.

O=C(c1ccncc1)N1CCC[C@@]2(CCN(c3ccncc3)C2)C1 was read as EPAC2 ant val -26%.
For CN1CCN(c2ncc3nc(CCc4ccccc4)c(=O)n(Cc4ccc(F)cc4)c3n2)CC1 the results were EPAC2 ant val -18%.
Screening Cc1c(C(=O)N2CCCCC2)sc2ncnc(NCCc3ccccn3)c12 returned EPAC2 ant val -31%.
Screening O=C(NCC1Cc2cccc(-c3cccnc3)c2O1)c1ccc2cc[nH]c2c1 (stereo unspecified) returned EPAC2 ant val inconclusive.
`N=C(N)SCCc1cnc[nH]1` gave EPAC2 ant val inconclusive.
Screening CCCCC(=O)N(Cc1ccc(-c2ccccc2-c2nn[nH]n2)cc1)[C@@H](C(=O)O)C(C)C returned EPAC2 ant val -12%.
For C=C1C(=O)O[C@@H]2C3OC3(C)CC/C=C(\C)CC[C@@H]12 (stereo partly specified) the results were EPAC2 ant val -5%.
For CN(C)CC(C)(O)c1ccc2c(c1)CN(C(=O)c1ccc(-n3cccn3)cc1)CCO2 (stereo unspecified) the results were EPAC2 ant val 4%.
Screening CC1CC2C3CCC4=CC(=O)C=C[C@]4(C)[C@@]3(F)[C@@H](O)C[C@]2(C)[C@@]1(O)C(=O)CO (stereo partly specified) returned EPAC2 ant val 2%.
Screening CN1CCN(c2ncc3nc(-c4cccc(C#N)c4)c(=O)n(CCc4ccccc4)c3n2)CC1 returned EPAC2 ant val 2%.
For N=S(=O)(O)Cc1noc2ccccc12 the results were EPAC2 ant val 15%.
CC(=O)O[C@@H]1CC2C(C)(C)C(=O)C=C[C@]2(C)C2CC[C@]3(C)C(=CC[C@H]3C3CO[C@@H](C(C)(C)O)[C@H](O)C3)[C@@]21C (stereo partly specified) was read as EPAC2 ant val -4%.
CC/C(=C\c1ccc(C(=O)OC)cc1)c1cc(OC)cc2oc3ccccc3c12 was read as EPAC2 ant val -21%.
CCCc1ccc(C(=O)O)cc1 was read as EPAC2 ant val -38%.
c1ccc2c(NC3CCNCC3)nc(-c3ccoc3)nc2c1 was read as EPAC2 ant val -13%.
`Nc1ccn([C@@H]2CS[C@H](CO)O2)c(=O)n1` gave EPAC2 ant val 9%.
Screening CC(C)Oc1ccc(C(=O)NCC2Cc3cc(Cl)cc(-c4ncccn4)c3O2)cc1 (stereo unspecified) returned EPAC2 ant val inconclusive.
For Oc1cn2c(n1)Nc1ccc(Cl)c(Cl)c1C2 the results were EPAC2 ant val 0%&13%.
Screening COc1ccc(-c2nc3cnc(N(C)C)nc3n(Cc3cccs3)c2=O)cc1 returned EPAC2 ant val 3%.
Cc1cn(C2OC[C@@H](O)[C@@H]2CO)c(=O)[nH]c1=O (stereo partly specified) was read as EPAC2 ant val -8%.
Screening Cc1nc(NCc2c(C)nn(C)c2Cl)sc1-c1ccn(CC2COc3ccccc3O2)n1 (stereo unspecified) returned EPAC2 ant val inconclusive.
Screening Cc1oc(-c2cccc(NC(=O)c3ccccn3)c2)nc1CNC(=O)c1ccc(C(F)(F)F)cc1 returned EPAC2 ant val -26%.
`CCC1CN(CCNC(=O)c2cc(C(C)C)nn2C)Cc2cc(OC)ccc2O1` (stereo unspecified) gave EPAC2 ant val 1%.
Screening CC(=O)OCC1=C(C(=O)O)N2C(=O)[C@@H](NC(=O)Cc3cccs3)[C@H]2SC1 returned EPAC2 ant val 22%&-22%.

Next section; it opens with the two that closed the last part.
`CCC1CN(CCNC(=O)c2cc(C(C)C)nn2C)Cc2cc(OC)ccc2O1` (stereo unspecified) gave EPAC2 ant val 1%.
Screening CC(=O)OCC1=C(C(=O)O)N2C(=O)[C@@H](NC(=O)Cc3cccs3)[C@H]2SC1 returned EPAC2 ant val 22%&-22%.
O=c1c(-c2cccs2)nc2cnc(N3CCNCC3)nc2n1C1CC1 was read as EPAC2 ant val 36%[activator].
Screening Cc1nc2n(c(=O)c1CCN1CCC(c3noc4cc(F)ccc34)CC1)CCCC2O (stereo unspecified) returned EPAC2 ant val -16%.
`Cc1ccc(C(=O)N(Cc2cc3cc4c(cc3nc2N2CCOCC2)CCC4)CC2CCCO2)s1` (stereo unspecified) gave EPAC2 ant val -32%.
For CCC(=O)c1c(O)cc(O)cc1O the results were EPAC2 ant val -16%.
`c1ccc(CCNc2nc(-c3ccccc3)cs2)cc1` gave EPAC2 ant val -14%.
Screening CC1OCC23CC[C@@]4(C)CCC(C)(C)C[C@H]4[C@]2(C)CCC12C3CC[C@@]1(C)C2C(=O)CC(=O)[C@@H]1C (stereo partly specified) returned EPAC2 ant val 19%.
c1ccc(CCc2nnc3n2CCN(Cc2ccc4ccccc4n2)CC3)cc1 was read as EPAC2 ant val 11%.
`N#Cc1ccc(/C=C2/C=Cc3ccccc32)cc1` gave EPAC2 ant val -21%.
For O=c1oc2cc(O)ccc2s1 the results were EPAC2 ant val -14%.
For Cc1ccc(C(=O)Nc2cnn(-c3ccc(C(=O)NCc4nc(-c5ccccc5)n[nH]4)cc3)c2)c(C)c1 the results were EPAC2 ant val inconclusive.
`COc1ccc(C[C@@H](C)NC[C@H](O)c2ccc(O)c(NC=O)c2)cc1` gave EPAC2 ant val -1%.
Cc1[nH]ccc2c1[nH]c1cc(=O)ccc12 was read as EPAC2 ant val inconclusive.
For O=C(NC1CCCCC1)NC1CCCCC1 the results were EPAC2 ant val -5%.
Screening Clc1ccccc1-c1ccc2ncnc(NCCN3CCOCC3)c2c1 returned EPAC2 ant val -22%.
O=C(c1ccc2c(c1)OCO2)N(Cc1cc2ccc(F)cc2nc1N1CCC(O)CC1)CC1CCCO1 (stereo unspecified) was read as EPAC2 ant val 2%.
O=c1[nH]c(=O)n([C@H]2C[C@@H](O)[C@@H](CO)O2)cc1C=CBr was read as EPAC2 ant val -13%.
`C=CCCN(Cc1ccccc1)S(=O)(=O)c1cc(Br)ccc1Br` gave EPAC2 ant val -19%.
For Cc1ncc2c(c1CNS(=O)(=O)c1cccs1)CCN(C(=O)/C=C/c1cc(F)cc(F)c1)C2 the results were EPAC2 ant val -14%.
For CC/C=C\C/C=C\C/C=C\C/C=C\C/C=C\C/C=C\CCC(=O)O the results were EPAC2 ant val -21%[11.4 µM].
For CCc1noc(C)c1C(=O)N1CCOc2ccc(CN3CCCC(C(=O)c4cccnc4)C3)cc2C1 (stereo unspecified) the results were EPAC2 ant val -31%.
Screening Cc1cccc2nc(CNC(=O)CN3Cc4cc(Cl)ccc4OC(C)C3)cn12 (stereo unspecified) returned EPAC2 ant val -9%.
`CCN1CCN(c2cc(-c3ccc(F)cc3)c3c(n2)CCCCCC3)CC1` gave EPAC2 ant val 1%.
`CCCNC(=O)N1N=C(c2ccc(N)cc2)c2cc3c(cc2[C@H]1C)OCO3` gave EPAC2 ant val inconclusive.
Cc1ccc(C2(O)CCN(CCCC(=O)c3ccc(F)cc3)CC2)cc1 was read as EPAC2 ant val -1%.
`COc1ccccc1CN1CCOc2ccc(CN3CCCCC3CO)cc2C1` (stereo unspecified) gave EPAC2 ant val -25%.
Screening COc1ccccc1CCNc1ncnc2sc(C(=O)N3CCCC3)c(C)c12 returned EPAC2 ant val -26%.
For CS(=O)(=O)OCCCCOS(C)(=O)=O the results were EPAC2 ant val 5%&-5%.
For Cc1c(C(=O)NCC2CCCN(C)C2)cnn1-c1nccc(-c2ccco2)n1 (stereo unspecified) the results were EPAC2 ant val inconclusive.
COc1cc(=O)n2c(c1C(=O)NCc1cccc(F)c1)CCN(Cc1cccnc1)CC2 was read as EPAC2 ant val -16%.
Cn1c(=O)c2c(ncn2CC(O)CO)n(C)c1=O (stereo unspecified) was read as EPAC2 ant val -14%[56.6 µM].
Screening Cc1c(C(=O)NCCc2cccnc2)cnn1-c1ncc2c(n1)-c1ccccc1CC2 returned EPAC2 ant val -1%.
Screening CSc1nnc(CNC(=O)c2c(-c3ccccc3)noc2C)n1-c1ccc(F)cc1 returned EPAC2 ant val 2%.
COc1ccc(CN2CCC(n3cc(C(=O)N4CCCCC4)nn3)CC2)c(OC)c1 was read as EPAC2 ant val -27%.
For CN1CCN(c2nc(-c3cccc(C#N)c3)nc3ccccc23)CC1 the results were EPAC2 ant val -16%.
CCCCCC(=O)Cc1cc(O)cc(O)c1C(=O)Oc1cc(CC(=O)CCCCC)c(C(=O)O)c(OC)c1 was read as EPAC2 ant val -25%.
COCC(=O)N1CCC2(CC1)CCN(c1ccncc1)CC2 was read as EPAC2 ant val -7%.

2 entries picked at random from those above, as already listed:
COCC(=O)N1CCC2(CC1)CCN(c1ccncc1)CC2 was read as EPAC2 ant val -7%.
CCCCCC(=O)Cc1cc(O)cc(O)c1C(=O)Oc1cc(CC(=O)CCCCC)c(C(=O)O)c(OC)c1 was read as EPAC2 ant val -25%.

Other entries follow.
O=S(O)CNc1ccc(S(=O)(=O)c2ccc(NCS(=O)O)cc2)cc1 was read as EPAC2 ant val -30%.
O=C(N[C@@H]1c2ccccc2C2(CCN(C(=O)c3ccc4c(c3)OCCO4)CC2)[C@H]1O)c1cccnc1 was read as EPAC2 ant val 12%.
`O=Nc1c(-c2c(O)[nH]c3cc(Br)ccc23)[nH]c2ccccc12` gave EPAC2 ant val -8%.
For Fc1cccc(/C=N\N=C/c2cccc(F)c2)c1 the results were EPAC2 ant val inconclusive.
For N#C/C(=C\c1ccc(O)c(O)c1)C(=O)NCCCc1ccccc1 the results were EPAC2 ant val inconclusive.
`C[C@@H](O[C@H]1OCCN(Cc2n[nH]c(=O)[nH]2)[C@@H]1c1ccc(F)cc1)c1cc(C(F)(F)F)cc(C(F)(F)F)c1` gave EPAC2 ant val 50µM*.
Screening CC(=O)N[C@@H](CCC(=O)O)C(=O)O returned EPAC2 ant val -13%.
`CC1(C)CC(C(=O)N2CCOc3ccc(CN4CCN(Cc5ccccn5)CC4)cc3C2)CCO1` (stereo unspecified) gave EPAC2 ant val 2%.
For COc1cccc(OC)c1OCCNCC1CSc2ccccc2O1 (stereo unspecified) the results were EPAC2 ant val -27%.
COC(=O)C1[C@H]2SC(C)(C)C(C(=O)OC)N2C(=O)N1Cc1ccccc1 (stereo partly specified) was read as EPAC2 ant val inconclusive.
`COc1ccc(OC)c2c(/C=C/c3c[nH]c4ccccc34)ccnc12` gave EPAC2 ant val -9%.
`CO/N=C(\C(=O)N[C@@H]1C(=O)N2C(C(=O)[O-])=C(C[n+]3cccc4c3CCC4)CS[C@H]12)c1csc(N)n1` gave EPAC2 ant val 13%.
For OC[C@H]1O[C@@H](O[C@H]2[C@H](O)[C@@H](O)[C@H](O)O[C@@H]2CO)[C@H](O)[C@@H](O)[C@@H]1O the results were EPAC2 ant val 21%.
Screening CC(c1ccon1)N(C)C(=O)c1cnn(-c2ncc3c(n2)-c2ccccc2CC3)c1C1CC1 (stereo unspecified) returned EPAC2 ant val -37%.
`Nc1nc2[nH]c(=O)c(=O)[nH]c2c(=O)[nH]1` gave EPAC2 ant val -5%.
Screening CCC1COCCS(=O)(=O)N1Cc1ccc(C)cc1 (stereo unspecified) returned EPAC2 ant val -20%.
For O=C(Nc1ccc(C(F)(F)F)cc1[N+](=O)[O-])O[C@H]1[C@H](Cc2ccccc2)NS(=O)(=O)[C@H]2C[C@@H]3C=C[C@]12O3 the results were EPAC2 ant val inconclusive.
Screening C=CCN1CCCC1CNC(=O)c1cc(S(N)(=O)=O)cc(OC)c1OC (stereo unspecified) returned EPAC2 ant val 2%.
`CCN(Cc1ccncc1)C(=O)C(CO)c1ccccc1` (stereo unspecified) gave EPAC2 ant val -2%&-6%&-15%.
Screening C[C@@H](CN1CC(=O)NC(=O)C1)N1CC(=O)NC(=O)C1 returned EPAC2 ant val -22%.
Screening CCCCCc1ccc(-c2cn(Cc3ccc([N+](=O)[O-])cc3)nn2)cc1 returned EPAC2 ant val 6%.
Screening O=S(=O)(c1ccccc1)N1CCC2(CC1)CN(c1ncccn1)C2 returned EPAC2 ant val -25%.
`C[C@]12C=CC(=O)C=C1CCC1C2C(=O)C[C@]2(C)C1CC[C@]2(O)C(=O)CO` (stereo partly specified) gave EPAC2 ant val -6%.
`COCCn1c(=O)c(-c2ccc(Cl)cc2)nc2cnc(Nc3ccccc3)nc21` gave EPAC2 ant val -21%.
For CC1CC[C@]2(CO)CC[C@]3(C)C(=CCC4[C@@]5(C)CCC(O)C(C)(C)C5CC[C@@]43C)C2C1C (stereo partly specified) the results were EPAC2 ant val -22%.
For COc1ccc2ccccc2c1CN1CCc2nnc(C(NS(C)(=O)=O)C(C)C)n2CC1 (stereo unspecified) the results were EPAC2 ant val 7%.
Screening N#Cc1ccc(CN2CCCC3(CCN(C(=O)c4cc(C(F)(F)F)cc(C(F)(F)F)c4)CC3)C2)cc1 returned EPAC2 ant val inconclusive.
`COc1cccc(Cn2c(=O)c(C)nc3cnc(N4CCNCC4)nc32)c1` gave EPAC2 ant val -14%.
`c1ccc(-c2ccccn2)nc1` gave EPAC2 ant val -16%.
Screening COC(=O)[C@H]1C(OC)[C@@H](OC(=O)c2cc(OC)c(OC)c(OC)c2)C[C@@H]2CN3CCc4c([nH]c5cc(OC)ccc45)[C@H]3C[C@H]21 (stereo partly specified) returned EPAC2 ant val -14%.

Five consecutive compounds out of the list so far, for reference:
For COc1ccc2ccccc2c1CN1CCc2nnc(C(NS(C)(=O)=O)C(C)C)n2CC1 (stereo unspecified) the results were EPAC2 ant val 7%.
Screening N#Cc1ccc(CN2CCCC3(CCN(C(=O)c4cc(C(F)(F)F)cc(C(F)(F)F)c4)CC3)C2)cc1 returned EPAC2 ant val inconclusive.
`COc1cccc(Cn2c(=O)c(C)nc3cnc(N4CCNCC4)nc32)c1` gave EPAC2 ant val -14%.
`c1ccc(-c2ccccn2)nc1` gave EPAC2 ant val -16%.
Screening COC(=O)[C@H]1C(OC)[C@@H](OC(=O)c2cc(OC)c(OC)c(OC)c2)C[C@@H]2CN3CCc4c([nH]c5cc(OC)ccc45)[C@H]3C[C@H]21 (stereo partly specified) returned EPAC2 ant val -14%.
